UUG fidelity: modulators of yeast start codon fidelity, primary screen, whole organism, S. cerevisiae, single point, plate reader. 350,000 tested, 0.13% active. S. cerevisiae UUG-firefly luciferase reporter, luminescence/redox ratio. activity score, % at 18.7 µM;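 active = replicate mean at a twofold rise or more, about +100% in these data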;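 also: firefly luciferase made from a UUG start codon reports start codon fidelity; reporter light over untreated wells divided by growth signal over untreated wells; some hits fall short of that in this replicate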
HIV Env fusion: inhibitors of HIV-1 Env-driven cell-cell fusion, primary screen, HeLa-JRFL effector, CEM21 target cells, luciferase; inhibition, % at 12.3 µM; 360,000 tested, 1.1% active; AID 651610, 2012;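 active = mean replicate inhibition score of at least 50 and every replicate individually at or above 50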;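 also: 0% = plate neutral controls and 100% = maraviroc near 300 nM; one replicate is shown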
The depositor's hits bear a star; [ ] = remark or other dose. An excerpt; count on the stated rates, not on these rows.

Structure | UUG fidelity | HIV Env fusion
C[C@H](CO)N1C[C@H](C)[C@H](CN(C)CC2CCCCC2)Oc2c(NS(=O)(=O)c3cccs3)cccc2C1=O | 3 | -18[16.7 µM]
COc1ccc(S(=O)(=O)Nc2ccc3c(c2)C(=O)N([C@H](C)CO)C[C@H](C)[C@H](CN(C)Cc2ccccc2)O3)cc1 | 15 | -3[16.7 µM]
CC(C)NC(=O)N(C)C[C@@H]1Oc2c(NS(=O)(=O)c3cccs3)cccc2C(=O)N([C@H](C)CO)C[C@@H]1C | -3 | 13[16.7 µM]
CNC[C@@H]1Oc2ccc(NC(=O)Cc3ccccc3)cc2C(=O)N([C@@H](C)CO)C[C@@H]1C | -8 | 13[16.7 µM]
COc1ccccc1-c1cn(CC[C@H]2CC[C@H](NC(=O)CCN3CCCCC3)[C@@H](CO)O2)nn1 | 3 | 5[16.7 µM]
C[C@H](CO)N1C[C@H](C)[C@@H](CN(C)C(=O)c2cccc(F)c2)Oc2cc(-c3cccc(F)c3)ccc2S1(=O)=O | 33 | 1[16.7 µM]
C[C@@H]1CN([C@H](C)CO)C(=O)Cc2cc(NC(=O)Nc3ccc4c(c3)OCO4)ccc2O[C@H]1CN(C)Cc1ccc(Oc2ccccc2)cc1 | 1 | 4[16.7 µM]
Cc1ccc(S(=O)(=O)N[C@@H]2CC[C@H](CCNC(=O)C3CCCC3)O[C@@H]2CO)cc1 | 14 | 16[16.7 µM]
C[C@@H]1CCCCO[C@@H](CN(C)C(=O)c2ccncc2)[C@@H](C)CN([C@@H](C)CO)C(=O)c2cc(NC(=O)C3CCCCC3)ccc2O1 | 11 | 0[16.7 µM]
C[C@@H]1CN([C@@H](C)CO)C(=O)c2cccc(NC(=O)c3ccncc3)c2O[C@H]1CN(C)CC1CCCCC1 | -10 | 99*[16.7 µM]
C/C=C/c1cnc2c(c1)C(=O)N([C@@H](C)CO)C[C@@H](C)[C@@H](CN(C)C(=O)CN1CCOCC1)O2 | -1 | 5[16.7 µM]
Cc1noc(C)c1S(=O)(=O)N(C)C[C@@H]1Oc2ccc(N(C)C)cc2CC(=O)N([C@@H](C)CO)C[C@@H]1C | 16 | -3[16.7 µM]
C[C@H](CO)N1C[C@H](C)[C@H](CN(C)CC2CCCCC2)OCCCC[C@H](C)Oc2ccc(NS(=O)(=O)c3ccc(Cl)cc3)cc2C1=O | 32 | 9[16.7 µM]
CCC(=O)N[C@H]1C=C[C@H](CC(=O)NCc2ccccc2OC)O[C@@H]1CO | -12 | -4[16.7 µM]
C[C@@H]1CN([C@@H](C)CO)C(=O)CCCn2cc(nn2)CO[C@H]1CN(C)C(=O)Nc1ccccc1F | 6 | 3[16.7 µM]
Cc1ccccc1-c1cnc2c(c1)C(=O)N([C@H](C)CO)C[C@@H](C)[C@H](CN(C)C(=O)c1ccccc1)O2 | 0 | -2[16.7 µM]
COc1ccc(-c2cnc3c(c2)C(=O)N([C@H](C)CO)C[C@@H](C)[C@H](CN(C)C(=O)NC2CCCC2)O3)cc1 | 10 | -2[16.7 µM]
C[C@H]1CN([C@@H](C)CO)C(=O)c2cccc(NS(=O)(=O)c3ccccc3)c2O[C@H]1CN(C)Cc1ccc(C(=O)O)cc1 | -17 | -8[16.7 µM]
C[C@@H]1CN([C@@H](C)CO)C(=O)c2cc(NC(=O)Nc3ccccc3)ccc2O[C@@H](C)CCCCO[C@@H]1CN(C)Cc1ccccc1 | -5 | -19[16.7 µM]
C[C@H]1CCCCO[C@@H](CN(C)Cc2ccncc2)[C@@H](C)CN([C@@H](C)CO)C(=O)c2cc(NS(=O)(=O)c3cn(C)cn3)ccc2O1 | -1 | 3[16.7 µM]
COc1ccc(COC[C@]23NC(=O)N[C@H](c4ccccc4O2)[C@H]3CO)cc1 | -2 | -5[16.7 µM]
CN1C(=O)c2cc(NC(=O)c3ccc(F)c(F)c3)ccc2OC[C@@H]2O[C@H](CC(=O)N3CCCCC3)CC[C@@H]21 | 9 | 19[16.7 µM]
COCC(=O)Nc1ccc2c(c1)C(=O)N(C)[C@@H]1CC[C@@H](CC(=O)NCc3ccccc3F)O[C@H]1CO2 | 19 | 12[16.7 µM]
C[C@H]1CN([C@@H](C)CO)C(=O)c2cc(NS(=O)(=O)c3ccc(F)cc3)ccc2O[C@H]1CN(C)C(=O)Nc1ccc(F)cc1 | 9 | 1[16.7 µM]
COc1ccc(CN(C)C[C@@H]2Oc3ccc(NS(=O)(=O)c4ccc(OC)cc4)cc3CC(=O)N([C@@H](C)CO)C[C@@H]2C)cc1 | -20 | -5[16.7 µM]
C[C@@H]1CN([C@@H](C)CO)C(=O)c2cc(C#Cc3ccccn3)cnc2O[C@H]1CN(C)Cc1cccnc1 | -4 | -31[16.7 µM]
C[C@@H]1CCCCO[C@@H](CN(C)Cc2ccc(C(=O)O)cc2)[C@@H](C)CN([C@@H](C)CO)C(=O)c2cc(NS(=O)(=O)c3ccc(Cl)cc3)ccc2O1 | 9 | -5[16.7 µM]
COc1ccc(CN(C)C[C@H]2OCCCC[C@@H](C)Oc3ccc(NC(=O)NC(C)C)cc3C(=O)N([C@H](C)CO)C[C@@H]2C)cc1 | 4 | 7[16.7 µM]
CC(C)C#Cc1cnc2c(c1)C(=O)N([C@@H](C)CO)C[C@@H](C)[C@H](CN(C)C(=O)CCN1CCCCC1)O2 | 14 | 10[16.7 µM]
C[C@@H]1CN([C@@H](C)CO)C(=O)c2cc(NC(=O)CCC(F)(F)F)ccc2O[C@@H](C)CCCCO[C@@H]1CN(C)Cc1ccc(C(=O)O)cc1 | 15 | -2[16.7 µM]

Look-ups from the list:
COc1ccc(COC[C@]23NC(=O)N[C@H](c4ccccc4O2)[C@H]3CO)cc1 – UUG fidelity = -2
C[C@H]1CN([C@@H](C)CO)C(=O)c2cc(NS(=O)(=O)c3ccc(F)cc3)ccc2O[C@H]1CN(C)C(=O)Nc1ccc(F)cc1 – HIV Env fusion = 1[16.7 µM]
COc1ccc(CN(C)C[C@@H]2Oc3ccc(NS(=O)(=O)c4ccc(OC)cc4)cc3CC(=O)N([C@@H](C)CO)C[C@@H]2C)cc1 – HIV Env fusion = -5[16.7 µM]
CN1C(=O)c2cc(NC(=O)c3ccc(F)c(F)c3)ccc2OC[C@@H]2O[C@H](CC(=O)N3CCCCC3)CC[C@@H]21 – UUG fidelity = 9
C[C@H]1CCCCO[C@@H](CN(C)Cc2ccncc2)[C@@H](C)CN([C@@H](C)CO)C(=O)c2cc(NS(=O)(=O)c3cn(C)cn3)ccc2O1 – UUG fidelity = -1
C[C@@H]1CCCCO[C@@H](CN(C)Cc2ccc(C(=O)O)cc2)[C@@H](C)CN([C@@H](C)CO)C(=O)c2cc(NS(=O)(=O)c3ccc(Cl)cc3)ccc2O1 – UUG fidelity = 9

(further entries)
Structure | UUG fidelity | HIV Env fusion
CCC(=O)Nc1ccc2c(c1)C(=O)N(C)C[C@@H](OC)[C@H](C)CN(C(=O)c1ccccc1F)[C@@H](C)CO2 | -2 | 11[16.7 µM]
CNC[C@H]1Oc2ccc(NC(=O)Cc3cn(C)c4ccccc34)cc2CC(=O)N([C@@H](C)CO)C[C@@H]1C | 6 | 2[16.7 µM]
O=C(C[C@@H]1C[C@H]2c3cc(NC(=O)NC4CCCC4)ccc3O[C@H]2[C@@H](CO)O1)NC1CCCC1 | -5 | -21[16.7 µM]
CCCNC(=O)Nc1ccc2c(c1)C(=O)N(C)C[C@H](OC)[C@@H](C)CN(C)[C@H](C)CO2 | -11 | 3[16.7 µM]
COc1ccc(NC(=O)N[C@H]2CC[C@@H](CCn3cc(C4(O)CCCC4)nn3)O[C@@H]2CO)cc1 | 0 | 5[16.7 µM]
Cc1ccc(S(=O)(=O)N(C)C[C@H]2Oc3ccc(NS(C)(=O)=O)cc3C(=O)N([C@H](C)CO)C[C@H]2C)cc1 | -3 | 13[16.7 µM]
C[C@@H]1CN([C@@H](C)CO)C(=O)c2cc(NS(=O)(=O)c3ccc(F)cc3)ccc2O[C@H]1CN(C)Cc1ccccc1 | 2 | 6[16.7 µM]
CN(C)c1ccc2c(c1)[C@@H]1C[C@H](CC(=O)NCc3ccc(-c4ccccc4)cc3)O[C@@H](CO)[C@@H]1O2 | -6 | 80*[16.7 µM]
C[C@@H]1CN([C@H](C)CO)C(=O)Cc2cc(NC(=O)CCC(F)(F)F)ccc2O[C@H]1CN(C)Cc1ccc(Cl)c(Cl)c1 | 4 | 18[16.7 µM]
O=C(CN1CCOCC1)N[C@H]1CC[C@H](CCNC(=O)C2CCCC2)O[C@@H]1CO | -1 | -4[16.7 µM]
Cc1ccccc1-c1cnc2c(c1)C(=O)N([C@@H](C)CO)C[C@@H](C)[C@@H](CN(C)C(=O)c1ccccc1)O2 | -2 | 15[16.7 µM]
COc1ccc(NC(=O)Nc2ccc3c(c2)C(=O)N([C@H](C)CO)C[C@H](C)[C@@H](CN(C)C(=O)Nc2ccc(C(F)(F)F)cc2)OCCCC[C@H](C)O3)cc1 | -11 | 27[16.7 µM]
CCCC#Cc1ccc2c(c1)O[C@H](CN(C)Cc1ccccn1)[C@@H](C)CN([C@H](C)CO)S2(=O)=O | 12 | -2[16.7 µM]
C[C@@H]1CCCCO[C@@H](CN(C)Cc2ccncc2)[C@H](C)CN([C@@H](C)CO)C(=O)c2cc(N(C)C)ccc2O1 | -5 | -8[16.7 µM]
C[C@H](CO)N1C[C@H](C)[C@H](CN(C)Cc2ccc(C(=O)O)cc2)Oc2ccc(NC(=O)Nc3ccc(C(F)(F)F)cc3)cc2CC1=O | -8 | 16[16.7 µM]
C[C@@H]1CCCCO[C@H](CN(C)S(=O)(=O)c2ccccc2)[C@@H](C)CN([C@@H](C)CO)C(=O)c2cc(NS(=O)(=O)c3ccccc3)ccc2O1 | 7 | -72[16.7 µM]
C[C@@H]1CN([C@@H](C)CO)C(=O)c2cc(NS(=O)(=O)c3ccc(Cl)cc3)ccc2O[C@@H](C)CCCCO[C@@H]1CN(C)C(=O)Nc1ccc(F)cc1 | 14 | -88[16.7 µM]
COc1ccccc1-c1cnc2c(c1)C(=O)N([C@@H](C)CO)C[C@H](C)[C@H](CN(C)C(=O)c1ccccc1)O2 | 11 | 28[16.7 µM]
CO[C@H]1CN(C)C(=O)c2cc(NC(=O)c3ccccc3)ccc2OC[C@@H](C)NC[C@H]1C | 36 | -6[16.7 µM]
Cc1cc(C(=O)Nc2cccc3c2O[C@@H](CN(C)Cc2ccc(Cl)c(Cl)c2)[C@@H](C)CN([C@H](C)CO)C3=O)n(C)n1 | 4 | 24[16.7 µM]
CN(C)C(=O)C[C@H]1C=C[C@H](NS(=O)(=O)c2ccccc2)[C@H](CO)O1 | -5 | 1[16.7 µM]
C[C@@H]1CCCCO[C@@H](CN(C)C(=O)Cc2ccccc2)[C@H](C)CN([C@@H](C)CO)C(=O)c2cc(NC(=O)c3ccccc3)ccc2O1 | 11 | -20[16.7 µM]
COc1ccc(S(=O)(=O)N[C@H]2C=C[C@H](CC(=O)O)O[C@@H]2CO)cc1 | -25 | 6[16.7 µM]
C[C@@H]1CN([C@H](C)CO)C(=O)c2cc(NC(=O)Nc3ccc4c(c3)OCO4)ccc2O[C@@H]1CN(C)Cc1ccc2c(c1)OCO2 | 3 | 6[16.7 µM]
COc1ccccc1NC(=O)N(C)C[C@@H]1Oc2ncc(C#CCC(C)C)cc2C(=O)N([C@H](C)CO)C[C@@H]1C | 16 | -11[16.7 µM]
CC(=O)N(C)C[C@H]1Oc2cc(C#Cc3cccnc3)ccc2S(=O)(=O)N([C@H](C)CO)C[C@H]1C | 3 | 1[16.7 µM]
COc1ccc(NC(=O)Nc2cccc3c2O[C@@H](CN(C)C(=O)NC2CCCCC2)[C@H](C)CN([C@@H](C)CO)C3=O)cc1 | 0 | -7[16.7 µM]
C[C@H]1CN([C@@H](C)CO)C(=O)c2cccc(NC(=O)c3ccncc3)c2O[C@@H]1CN(C)Cc1ccc(C(F)(F)F)cc1 | 5 | -2[16.7 µM]
Cc1ccc(S(=O)(=O)Nc2ccc3c(c2)CC(=O)N([C@@H](C)CO)C[C@H](C)[C@@H](CN(C)S(C)(=O)=O)O3)cc1 | 25 | 7[16.7 µM]
CCO[C@H]1OC(C(=O)N2CCCC2)=C[C@@H](c2ccc(C(F)(F)F)cc2)[C@@H]1CCCO | 20 | -3[16.7 µM]
C[C@H](CO)N1C[C@H](C)[C@H](CN(C)C(=O)Cc2ccncc2)Oc2ncc(C3=CCCCC3)cc2C1=O | -6 | 5[16.7 µM]
CCCc1cn(CC[C@H]2CC[C@@H](NC(=O)CCN3CCCCC3)[C@@H](CO)O2)nn1 | -12 | -18[16.7 µM]
COc1cccc(C#Cc2cnc3c(c2)C(=O)N([C@@H](C)CO)C[C@@H](C)[C@@H](CN(C)C(=O)C2CC2)O3)c1 | 9 | -15[16.7 µM]
COc1ccc(S(=O)(=O)Nc2ccc3c(c2)C(=O)N([C@H](C)CO)C[C@H](C)[C@@H](CN(C)S(=O)(=O)c2cccs2)OCCCC[C@@H](C)O3)cc1 | 13 | -33[16.7 µM]
C[C@H](CO)N1C[C@H](C)[C@@H](CN(C)C(=O)Nc2cccc3ccccc23)OCCCC[C@H](C)Oc2ccc(NC(=O)c3ccncc3)cc2C1=O | 5 | 21[16.7 µM]
CC(C)C(=O)Nc1ccc2c(c1)C(=O)N(C)[C@H]1CC[C@H](CC(=O)O)O[C@H]1CO2 | -5 | -22[16.7 µM]
CCCC#Cc1cnc2c(c1)C(=O)N([C@H](C)CO)C[C@@H](C)[C@@H](CN(C)S(C)(=O)=O)O2 | -4 | -7[16.7 µM]

Part of the list above in order of SMILES length, smallest number first.
Structure | UUG fidelity | HIV Env fusion
CCCc1cn(CC[C@H]2CC[C@@H](NC(=O)CCN3CCCCC3)[C@@H](CO)O2)nn1 | -12 | -18[16.7 µM]
CCCC#Cc1cnc2c(c1)C(=O)N([C@H](C)CO)C[C@@H](C)[C@@H](CN(C)S(C)(=O)=O)O2 | -4 | -7[16.7 µM]
C[C@H](CO)N1C[C@H](C)[C@H](CN(C)C(=O)Cc2ccncc2)Oc2ncc(C3=CCCCC3)cc2C1=O | -6 | 5[16.7 µM]
